Source: PubChem (Broad Institute)
Vaccinia inh: blocks a specific stage of Vaccinia orthopoxvirus infection, primary screen, cell-based, single point | Vaccinia-infected cells, mCherry/Venus stage reporter fluorescence; hits give low values; some inactives read as strong as hits | activity change (mCherry), % (concentration not given with the values) | hit rate 0.01% among 89,000 | AID 1053133, 2014;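 active = mCherry past -33% and 40 or more points under the early reporter, replicates agreeing; inconclusive = past -33% without that gap or agreement; tested in A549 cells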;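 also: scaled between vehicle wells and reference inhibitor wells; 23 nL library stock went into each well; one replicate is shown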
Vaccinia inh Venus: recorded beside Vaccinia inh, whose call it bears; activity change (Venus), %; measured here: Venus reporter, other viral stage;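 negative = less Venus signal; first of two replicates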
* = called active by the depositor; u = inconclusive; x = not tested or not shown.

compound	Vaccinia inh Venus	Vaccinia inh
COc1ccc(C#Cc2ccc([C@H]3[C@@H](CO)N4CCCCN(C(=O)c5ccncc5)C[C@@H]34)cc2)cc1	x	u
COc1ccc(C#Cc2ccc([C@@H]3[C@@H](CO)N4C(=O)CN(C(C)=O)C[C@@H]34)cc2)cc1	2.1	2.1
CCCN1[C@H](C(=O)OC)[C@@H](CO)[C@@H]2Cn3c(ccc(-c4ccccc4OC)c3=O)[C@@H]21	13.6	13.4
C[C@H](CO)N1C[C@H](C)[C@H](CN(C)C(=O)CCCN(C)C)OCCCC[C@H](C)Oc2ccc(NS(=O)(=O)c3cn(C)cn3)cc2C1=O	8.6	16.1
Cc1cccc(S(=O)(=O)N2C[C@@H]3[C@H](c4ccccc42)[C@H](CO)N3C(=O)C2CC2)c1	-6.3	-2.7
O=C(C[C@@H]1CC[C@@H](NC(=O)Nc2ccccc2)[C@@H](CO)O1)NCc1ccccn1	-2.4	-4.8
C[C@@H]1CN([C@@H](C)CO)C(=O)Cc2cc(NC(=O)Nc3cccc4ccccc34)ccc2O[C@@H]1CN(C)Cc1ccc(Oc2ccccc2)cc1	6.6	7.5
COc1ccc(NC(=O)N(C)C[C@H]2Oc3ccc(NC(=O)Cc4cn(C)c5ccccc45)cc3CC(=O)N([C@H](C)CO)C[C@@H]2C)cc1	-3.9	-4.2
CN1c2ccc(C3=CCCCC3)cc2[C@@H]2[C@@H](CCN2C(=O)Nc2cc(F)ccc2F)[C@@H]1CO	6.3	11.7
Cc1noc(C)c1NC(=O)Nc1ccc2c(c1)CC(=O)N([C@H](C)CO)C[C@@H](C)[C@@H](CN(C)Cc1ccc(Cl)c(Cl)c1)O2	-13.1	-13.4
Cc1ccc(S(=O)(=O)Nc2ccc3c(c2)CC(=O)N([C@@H](C)CO)C[C@H](C)[C@H](CN(C)S(=O)(=O)c2cccs2)O3)cc1	-6.1	1.1
Cc1noc(C)c1NC(=O)N(C)C[C@H]1Oc2ccc(NC(=O)NC(C)C)cc2CC(=O)N([C@@H](C)CO)C[C@@H]1C	12.0	16.7
COc1ccccc1NC(=O)N[C@H]1C=C[C@H](CC(=O)N2CCC(Cc3ccccc3)CC2)O[C@H]1CO	0.0	-10.4
Cc1noc(C)c1S(=O)(=O)Nc1ccc2c(c1)C(=O)N([C@H](C)CO)C[C@H](C)[C@H](CN(C)Cc1ccc(C(F)(F)F)cc1)OCCCC[C@H](C)O2	x	u
O=C(NCC1CCCCC1)[C@@H]1N[C@@H]2c3ccc(C4=CCCCC4)c(=O)n3C[C@@H]2[C@H]1CO	0.0	4.6
C[C@@H]1CN([C@@H](C)CO)C(=O)c2cc(C#Cc3cccnc3)cnc2O[C@H]1CN(C)C	14.4	13.2
Cc1noc(C)c1NC(=O)Nc1ccc2c(c1)C(=O)N([C@H](C)CO)C[C@H](C)[C@@H](CN(C)CC1CCCCC1)OCCCC[C@@H](C)O2	2.7	12.8
C[C@H](CO)N1C[C@H](C)[C@@H](CN(C)S(=O)(=O)c2ccccc2)Oc2ccc(NC(=O)Cc3cn(C)c4ccccc34)cc2C1=O	-5.8	-14.1
C[C@@H]1CN([C@@H](C)CO)C(=O)c2cc(-c3cccc(C#N)c3)cnc2O[C@H]1CN(C)Cc1ccccc1	-1.8	-0.6
O=C(C[C@H]1CC[C@@H]2[C@H](COC[C@H](O)CN2C(=O)c2ccncc2)O1)NCc1ccc(-c2ccccc2)cc1	-4.9	1.4
O=C(NCC1CC1)[C@@H]1[C@@H](CO)[C@@H]2Cn3c(cccc3=O)[C@@H]2N1Cc1cncnc1	8.2	1.2
CC(=O)N1C[C@@H]2[C@H](c3ccccc31)[C@H](CO)N2C(=O)c1ccc(F)cc1	11.0	13.4
C[C@@H]1CN([C@H](C)CO)C(=O)c2cc(NC(=O)Nc3ccc(C(F)(F)F)cc3)ccc2O[C@@H](C)CCCCO[C@@H]1CN(C)C(=O)c1ccccc1	6.6	-11.6
C[C@H]1CN([C@@H](C)CO)C(=O)CCCn2cc(nn2)CO[C@@H]1CN(C)C(=O)C1CC1	2.2	5.2
O=S(=O)(N[C@@H]1CC[C@H](CCNS(=O)(=O)c2ccccc2Cl)O[C@@H]1CO)c1ccccc1	1.3	9.5
O=C(NC[C@@H]1[C@H](c2ccccc2)[C@H](CO)N1C(=O)C1CC1)NC1CCCC1	6.1	5.8
CCS(=O)(=O)Nc1ccc2c(c1)C(=O)N(C)[C@@H]1CC[C@H](CC(=O)NC)O[C@H]1CO2	-1.3	-8.6
C[C@@H]1CN([C@@H](C)CO)C(=O)c2cccc(NC(=O)C3CCOCC3)c2O[C@H]1CN(C)Cc1ccncc1	6.4	11.2
C[C@H](CO)N1C[C@H](C)[C@H](CN(C)S(=O)(=O)c2ccc(Cl)cc2)Oc2c(NC(=O)Nc3ccccc3)cccc2C1=O	-6.0	-13.8
CCN1[C@H](C(=O)N(C)C)[C@@H](CO)[C@@H]2Cn3c(ccc(-c4cccc(OC)c4)c3=O)[C@@H]21	3.3	4.0

Entries of single compounds as entered above:
C[C@@H]1CN([C@@H](C)CO)C(=O)c2cc(-c3cccc(C#N)c3)cnc2O[C@H]1CN(C)Cc1ccccc1 as listed: Vaccinia inh Venus = -1.8; Vaccinia inh = -0.6
C[C@H](CO)N1C[C@H](C)[C@H](CN(C)S(=O)(=O)c2ccc(Cl)cc2)Oc2c(NC(=O)Nc3ccccc3)cccc2C1=O as listed: Vaccinia inh Venus = -6.0; Vaccinia inh = -13.8

Other entries:
compound	Vaccinia inh Venus	Vaccinia inh
C[C@H](CO)N1C[C@H](C)[C@@H](CN(C)C(=O)Nc2ccc(F)cc2)Oc2ccc(NS(=O)(=O)c3ccc(Cl)cc3)cc2CC1=O	20.0	19.3
N#C[C@H]1[C@H](c2ccc(-c3ccccc3)cc2)[C@H](CO)N1C(=O)Cc1ccccc1	12.2	2.9
COc1ccc(S(=O)(=O)Nc2ccc3c(c2)C(=O)N([C@@H](C)CO)C[C@@H](C)[C@H](CN(C)C(=O)c2ccncc2)OCCCC[C@H](C)O3)cc1	3.8	10.6
COC(=O)[C@@]1(CCC(=O)OC(C)(C)C)N=C(c2ccc(OCCCO)cc2)O[C@H]1c1ccccc1CN=[N+]=[N-]	x	u
C[C@@H]1CN([C@@H](C)CO)C(=O)c2cc(NS(=O)(=O)c3ccccc3)ccc2O[C@@H](C)CCCCO[C@H]1CN(C)Cc1ccncc1	-14.1	-6.1
CCCC#Cc1cnc2c(c1)C(=O)N([C@@H](C)CO)C[C@H](C)[C@H](CN(C)S(=O)(=O)c1cccc(OC)c1)O2	-20.2	-25.3
Cc1ccccc1-c1ccc2c(c1)O[C@H](CN(C)C)[C@H](C)CN([C@@H](C)CO)S2(=O)=O	3.2	-8.5
C[C@H](CO)N1C[C@H](C)[C@@H](CN(C)Cc2ccc(-c3ccccc3)cc2)Oc2ncc(C#CCN(C)C)cc2C1=O	x	u
C[C@@H](NC(=O)C[C@H]1CC[C@H]2[C@@H](COC[C@H](O)CN2C(=O)Nc2cc(Cl)cc(Cl)c2)O1)c1ccccc1	x	u
C[C@H](CO)N1C[C@H](C)[C@@H](CN(C)Cc2ccccc2)Oc2ncc(C#CCN(C)C)cc2C1=O	5.1	31.2
C[C@H](NC(=O)C[C@@H]1CC[C@H](NS(=O)(=O)c2cccc(F)c2)[C@H](CO)O1)c1ccccc1	7.9	12.0
C[C@H](CO)N1C[C@H](C)[C@@H](CN(C)S(=O)(=O)c2cccs2)Oc2ccc(NC(=O)Nc3ccc4c(c3)OCO4)cc2C1=O	9.1	11.3
COCCNC(=O)C[C@@H]1C[C@@H]2c3cc(NC(=O)Nc4ccc(C(F)(F)F)cc4)ccc3O[C@@H]2[C@H](CO)O1	6.6	-8.4
CO[C@@H]1CN(C)C(=O)c2cc(NC(=O)CC(F)(F)F)ccc2OC[C@H](C)N(CC2CC2)C[C@H]1C	7.8	6.1
COCC(=O)N1C[C@@H](C)[C@@H](OC)CN(C)C(=O)c2cc(NC(=O)c3ccc(OC)cc3)ccc2OC[C@H]1C	1.5	6.6
COc1ccc(NC(=O)N(C)C[C@@H]2Oc3ccc(NC(=O)CCCCCC(=O)Nc4ccccc4N)cc3CC(=O)N([C@@H](C)CO)C[C@@H]2C)cc1	2.7	-1.3
CCC(=O)N(C)C[C@H]1Oc2cc(C#CC3(O)CCCC3)ccc2S(=O)(=O)N([C@@H](C)CO)C[C@H]1C	3.4	5.3
COc1cccc(-c2cnc3c(c2)C(=O)N([C@H](C)CO)C[C@H](C)[C@@H](CN(C)C(=O)CC2CC2)O3)c1	2.1	10.0
CO[C@@H]1CN(C)C(=O)c2ccc(NC(=O)c3ccccc3F)cc2OC[C@@H](C)NC[C@@H]1C	0.7	-5.9
COc1ccc2c3c([nH]c2c1)[C@@H](CO)NCC31CN(S(=O)(=O)c2cccc(C)c2)C1	3.5	-5.2
CO[C@@H]1CC[C@@H]2CCOc3c(C#N)cccc3C(=O)N(C)C[C@H](c3ccccc3)CC(=O)N(C)C[C@H]1O2	3.4	8.4
CCCNC(=O)C[C@@H]1C[C@H]2c3cc(NC(=O)COC)ccc3O[C@H]2[C@@H](CO)O1	7.3	8.4
CO[C@@H]1CN(C)C(=O)c2ccc(NS(C)(=O)=O)cc2OC[C@@H](C)N(C(=O)CN(C)C)C[C@@H]1C	7.8	11.0
C[C@@H]1CN([C@@H](C)CO)C(=O)Cc2cc(NC(=O)CCC(F)(F)F)ccc2O[C@@H]1CN(C)Cc1ccncc1	12.5	20.6
CN(C)C(=O)C[C@@H]1CC[C@H]2[C@H](COc3ccc(NC(=O)C4CCOCC4)cc3C(=O)N2C)O1	8.4	12.5
CO[C@@H]1CN(C)C(=O)c2cc(NC(=O)C3CC3)ccc2OC[C@H](C)N(C(C)=O)C[C@H]1C	9.3	9.2
COc1cccc(CNC(=O)C[C@H]2CC[C@@H](NC(=O)C3CC3)[C@H](CO)O2)c1	4.3	7.1
COCC(=O)N1CC2(C1)[C@@H](c1ccc(-c3ccc(F)cc3)cc1)[C@H](CO)N2C(=O)C1CC1	0.7	0.8
CC(C)NC(=O)N1C[C@@H]2[C@H](c3ccccc31)[C@@H](CO)N2Cc1ccccc1	11.3	7.1
CN1C(=O)c2cc(NC(=O)c3cccc(F)c3)ccc2OC[C@H]2O[C@@H](CC(=O)NCC3CCCCC3)CC[C@@H]21	-1.3	u
O=C(C1CC1)N1CCCCN2[C@H](CO)[C@H](c3ccc(C#CC4(O)CCCC4)cc3)[C@@H]2C1	17.8	42.0
O=C(C[C@@H]1CC[C@H]2[C@@H](COC[C@@H](O)CN2C(=O)Nc2ccccc2)O1)NC1Cc2ccccc2C1	-6.3	-3.7
COc1ccc2c3c([nH]c2c1)[C@H](CO)N(CC1CCOCC1)CC31CN(C(=O)C2CCOCC2)C1	11.0	15.3
O=C(Cc1ccccc1)N[C@H]1C=C[C@H](CC(=O)N2CCCCC2)O[C@@H]1CO	9.8	1.1
COc1ccc(C#Cc2ccc([C@@H]3[C@@H](CO)N4CCCCN(C(=O)Cc5ccccc5)C[C@H]34)cc2)cc1	-10.3	-28.1
Cc1noc(C)c1S(=O)(=O)N(C)C[C@H]1Oc2ccc(NS(C)(=O)=O)cc2CC(=O)N([C@@H](C)CO)C[C@H]1C	14.5	14.7
C[C@H](CO)N1C[C@H](C)[C@H](CN(C)C(=O)NC2CCCCC2)Oc2c(NC(=O)NC3CCCCC3)cccc2C1=O	-17.5	-25.7
C[C@@H]1CN([C@@H](C)CO)C(=O)c2cc(/C=C/c3ccccc3)cnc2O[C@H]1CN(C)C(=O)Cc1cccnc1	1.5	13.8
COc1ccc(-c2ccc3c(c2)O[C@@H](CN(C)Cc2cccnc2)[C@H](C)CN([C@H](C)CO)S3(=O)=O)cc1	x	u
COc1ccc(C(=O)Nc2ccc3c(c2)C(=O)N(C)C[C@@H](OC)[C@H](C)CN(C(C)=O)[C@@H](C)CO3)cc1	-5.5	-6.8
C[C@@H]1CN([C@@H](C)CO)C(=O)c2cc(Br)cnc2O[C@H]1CN(C)C(=O)c1ccccn1	10.1	15.5
CN1C(=O)c2cc(NC(=O)Nc3ccc(F)cc3)ccc2OC[C@H]2O[C@H](CC(=O)NC3CCC3)CC[C@H]21	0.5	3.5
Cc1noc(C)c1NC(=O)Nc1ccc2c(c1)CC(=O)N([C@@H](C)CO)C[C@H](C)[C@H](CN(C)C(=O)Nc1cccc3ccccc13)O2	10.2	9.6
O=C(C[C@@H]1C[C@H]2c3cc(NC(=O)Cc4ccncc4)ccc3O[C@H]2[C@@H](CO)O1)NCc1cccc(F)c1	6.3	-3.8
COc1cccc(-c2ccc3c(c2)[C@@H]2[C@@H](CCN2C(=O)C2CCCCC2)[C@H](CO)N3)c1	x	u
O=C(c1ccncc1)N1C[C@H]2[C@@H](c3ccccc31)[C@@H](CO)N2C(=O)CN1CCOCC1	9.2	11.9

Some of the entries so far, with values under each structure.
Below each compound – Vaccinia inh Venus, Vaccinia inh
> COc1cccc(-c2ccc3c(c2)[C@@H]2[C@@H](CCN2C(=O)C2CCCCC2)[C@H](CO)N3)c1
    x, u
> O=C(Cc1ccccc1)N[C@H]1C=C[C@H](CC(=O)N2CCCCC2)O[C@@H]1CO
    9.8, 1.1
> CN1C(=O)c2cc(NC(=O)Nc3ccc(F)cc3)ccc2OC[C@H]2O[C@H](CC(=O)NC3CCC3)CC[C@H]21
    0.5, 3.5

Not all compounds are listed, so the mix of outcomes need not match the whole.
